gsp antag = qHTS for Antagonists of gsp, the Etiologic Mutation Responsible for Fibrous Dysplasia/McCune-Albright Syndrome: qHTS | 340,000 compounds, 0.4% hits | gsp-mutant cells, cAMP HTRF, 30 min; control for the full effect not named in the record | Potency, µM (top dose mostly 76.9 µM), for inactives: top-dose activity change, negative = inhibition, most hits filed as inhibitors | AID 624288, 2012; active = falling curve of any shape with a large fitted effect; inconclusive = falling curve, mostly with a smaller effect; inactive = flat or rising curve; cell line not stated here;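 also: intracellular cAMP measured with PDE inhibitor Ro 20-1724 present during compound exposure; potency is read from the fitted curve at half-maximal effect; % is scaled to controls: 0 for no effect and ±100 for the full control effect; nearly all actives have a fitted effect of over 65% in size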
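Cells, 2000/well, grown 16–24 h in DMEM 10% FBS with 0.5 mg/ml G418, then compounds plus […] (300 uM addition stock), 30 min at 37C. cAMP read by HTRF (cAMP-d2 and anti-cAMP antibody-K in lysis buffer) after 30 min RT.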
gsp agonist = qHTS for Agonist of gsp, the Etiologic Mutation Responsible for Fibrous Dysplasia/McCune-Albright Syndrome: qHTS. AID 624287, 2012. Potency, µM (series often up to 76.9 µM), for the others: at the top dose activation (cAMP increase), actives largely listed as activators. gsp mutant cells, cAMP HTRF, 30 min; control for the full effect not named in the record. 340,000 compounds, 0.13% hits; active = well fitted activation curve with a large enough effect; inconclusive = small, poorly fitted or top-dose-only effect, or another doubt; inactive = no such curve, though single readings can be large or run the other way; cell line not stated here;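 also: phosphodiesterase inhibitor Ro 20-1724 added with compounds to block cAMP breakdown; potency is read from the fitted curve at half-maximal effect; nearly all actives have a fitted effect of over 60% in size; about a fifth of the inactives were tested at one dose only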
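Cells in DMEM/10% FBS with G418 were pretreated with compounds in DMSO plus […] (300 uM stock) for 30 min at 37C. cAMP was measured by HTRF (cAMP-d2 plus anti-cAMP antibody-K) after 30 min at room temperature.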
TRPML1 blocker = qHTS for Inhibitors of the Human Mucolipin Transient Receptor Potential 1 (TRPML1). Mucolipin-1 (Homo sapiens), Q9GZU1. TRPML1-inducible cells, Ca2+ dye fluorescence, FDSS; stronger effect = lower value; inhibition of EC80 agonist-evoked calcium signal. activity change, negative = inhibition, % (test concentration not listed). 390,000 compounds, 0.02% hits; in the data active means activity change below about -50%; inconclusive means about -30% to -50%; inactive means above about -30%;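 also: stimulus is agonist 54-4 at its EC80 concentration; % is scaled to controls: 0 for no effect and ±100 for the full control effect; compound concentration not given in the record; the text of the record puts the active cut at -80%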
Target sequence (Q9GZU1 whole entry, looked up): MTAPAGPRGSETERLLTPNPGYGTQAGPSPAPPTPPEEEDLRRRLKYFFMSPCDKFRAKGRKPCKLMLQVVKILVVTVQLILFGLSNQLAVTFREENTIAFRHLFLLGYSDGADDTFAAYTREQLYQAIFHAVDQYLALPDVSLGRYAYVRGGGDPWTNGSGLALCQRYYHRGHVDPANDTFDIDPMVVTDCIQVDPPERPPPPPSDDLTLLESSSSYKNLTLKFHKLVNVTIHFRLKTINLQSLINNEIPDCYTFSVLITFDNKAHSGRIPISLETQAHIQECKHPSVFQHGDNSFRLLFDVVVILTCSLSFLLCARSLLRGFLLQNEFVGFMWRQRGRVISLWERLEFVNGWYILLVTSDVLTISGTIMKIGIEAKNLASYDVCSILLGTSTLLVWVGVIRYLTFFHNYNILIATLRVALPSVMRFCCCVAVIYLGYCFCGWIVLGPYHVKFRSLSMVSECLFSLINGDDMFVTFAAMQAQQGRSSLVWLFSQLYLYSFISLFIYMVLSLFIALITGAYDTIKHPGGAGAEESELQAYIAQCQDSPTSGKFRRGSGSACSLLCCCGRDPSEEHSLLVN
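TRPML1-DL cells, Tet-induced overnight (~16 h, 37 °C) at 1,500 cells/well, were loaded with Ca8 no-wash dye plus quencher for 45-90 min at room temperature. Compounds were pinned during FDSS kinetic reading; agonist 54-4 at EC80 (4 uM final) then added.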
ClpP mod = qHTS Assay for Activators of ClpP; purified B. subtilis ClpP, FRET peptide cleavage, 20 min; Potency, µM (top dose mostly 57.5 µM), for the others: at the highest dose activity change, negative = active; 340,000 compounds, 1.9% hits; AID 651965, 2013; active = well fitted falling curve with a large enough effect; inconclusive = small, poorly fitted or top-dose-only effect; inactive = no such curve, though single readings can be large or run the other way; also: potency is read from the fitted curve at half-maximal effect; the source files actives as falling curves though it sought activators and does not explain the sign; nearly all actives have a fitted effect of over 65% in size; many hits overshoot -100%
Target sequence (P80244 whole entry, looked up): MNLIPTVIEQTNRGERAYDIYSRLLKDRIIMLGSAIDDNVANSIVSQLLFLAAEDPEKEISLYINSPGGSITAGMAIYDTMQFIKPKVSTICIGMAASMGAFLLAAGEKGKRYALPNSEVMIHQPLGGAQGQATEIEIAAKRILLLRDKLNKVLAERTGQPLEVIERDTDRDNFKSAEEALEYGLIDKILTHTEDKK
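Buffer: 100 mM Tris/HCl pH8, 100 mM KCl, 0.05% low protease BSA, 2.5% glycerol, 0.01% Tween-20. ClpP 10 microg/mL final; 20 min RT; delta FRET normalized to ADEP and DMSO controls.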
Sfp inh = qHTS Assay for Inhibitors of Bacillus subtilis Sfp phosphopantetheinyl transferase (PPTase); Potency, µM, for the others: max response, negative = inhibition, actives largely listed as inhibitors; 310,000 compounds, 3.5% hits; 4'-phosphopantetheinyl transferase ffp (Bacillus subtilis), Q9F4F7; AID 1490, 2009; Biochemical Sfp PPTase activity, qHTS; active = well fitted inhibition curve with a large enough effect; inconclusive = small, poorly fitted or top-dose-only effect, or another doubt; inactive = no such curve, though single readings can be large or run the other way;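 also: the enzyme is Sfp with the accession as filed and its product quenches rhodamine fluorescence; potency is read from the fitted curve at half-maximal effect; 0% = enzyme reaction without inhibitor and -100% = no enzyme wells; top concentration of the series not given in the record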
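Step 1, compound plus 15 nM Sfp-PPTase, 15 min, room temperature. Step 2, add rhodamine-CoA (5 uM) and BHQ-2-YbbR (12.5 uM). Step 3, read 525/598 nm fluorescence at 0 and 30 min.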
TRPV1 potentiator = HTS Assay for Compounds that Act as Potentiators of the Vanilloid Receptor 1 | TRPV1-expressing cells, Fluo-8 calcium influx, capsaicin EC20 potentiation; host cell line not named in the record; control for the full effect not named in the record | 320,000 compounds, 0.02% hits | Transient receptor potential cation channel subfamily V member 1 (Homo sapiens), Q8NER1 | potentiation, % at 8.33 µM; active means potentiation above 80%; inconclusive means 30% to 80%; inactive means below 30%; also: 0% is about no effect
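TRPV1-expressing cells were cultured overnight at 35.5C and loaded with Fluo-8 calcium dye for 40 to 90 min at room temperature. After a 10 s baseline, compound was added and calcium influx was read kinetically for 3 min (ex 480/em 520 nm).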
Menin MLL FP FL = qHTS Assay for Inhibitors Targeting the Menin-MLL Interaction in MLL Related Leukemias: Competition With Fluorescein Labeled MLL-derived Peptide; Fluorescence polarization, fluorescein-MLL peptide displacement from menin; FP activity change, % at 61.4 µM; 290,000 tested, under 10 active; inconclusive = falling polarisation curve, or a change in total fluorescence; inactive = total fluorescence flat and polarisation flat or rising; no compound was filed as active; the % refers to the polarisation; negative = inhibition;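 also: % of control where 0% means no effect; inhibitors lower the polarisation; unlabelled MLL peptide was the positive control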
The depositor's hits bear a star; ? = inconclusive; / = not tested or not shown; [ ] = remark or other dose.

Under each structure – gsp antag, gsp agonist, TRPML1 blocker, ClpP mod, Sfp inh, TRPV1 potentiator, Menin MLL FP FL
- O=C(OCC(=O)N1CCOCC1)c1ccc2ccccc2c1
 : 7%, 8%, -3, 4.1%, /, 18, /
- CC1=Nn2c(nnc2-c2ccco2)SC1
 : 1%, -16%, -3, 0.9%, 56µM*, 11, -0.5
- O=C(Nc1ccccc1)c1cc([N+](=O)[O-])ccc1N1CCCCC1
 : -6%, -21%, 9, /, /, /, /
- CSc1ccc(CN2CCCC(N3CCN(c4ccccc4)CC3)C2)cc1 (centres undefined)
 : 10%, -4%, 10, -3.0%, 6%, 5, -4.2
- O=C(c1cccc(Br)c1)N1CCN(C(=O)N2CCCCC2)CC1
 : -6%, 10%, 4, 0.4%, 10%, -20, 0.5
- Cc1cccc(Nc2ncnc3onc(-c4cccc(Cl)c4)c23)c1C
 : ?, /, 31, ?, -7%, 7, -0.3
- COc1ccc2sc(-c3ccccc3OC)c(-c3ccc(OCCN(C)C)cc3)c2c1
 : 0%, /, 3, ?, /, /, /
- CC1CCCN(C(=O)Cn2c3ccccc3c3nc4n(c(=O)c32)CCS4)C1 (centres undefined)
 : -44%, 29%[15.4 µM], -14, /, 6%, 8, -0.4
- O=C(NCc1ccccn1)C1CCN(S(=O)(=O)N2CCC3(CC2)OCCO3)CC1
 : 1%, 2%, -12, -4.7%, 29%, -1, -0.8
- CCC1Sc2ccc(S(=O)(=O)CCC(=O)N3CCc4ccccc43)cc2NC1=O (centres undefined)
 : -7%, 25%, 12, -3.1%, -13%, -8, /
- Cc1ccc(C(=O)NNC(=O)c2ccc(Br)s2)cc1S(=O)(=O)N1CCOCC1
 : -5%, -1%, 17, -0.4%, /, 3, /
- O=C(NCCS(=O)(=O)N1CCCCCC1)c1ccc(F)cc1
 : 8%, 20%[15.4 µM], 20, /, /, -9, /
- C=CCN1C(=O)S/C(=C/c2ccsc2)C1=O
 : -5%, -13%, 7, -0.3%, 8%, -9, -0.7
- CCN(CC(=O)Nc1ccc(NC(C)=O)cc1)C(=O)c1cc(-c2ccccc2)nn1-c1ccccc1
 : 0%, -14%, 7, -1.3%, /, 0, /
- O=C(O)c1cc(S(=O)(=O)Nc2ccc(N3CCCCC3)cc2)ccc1Cl
 : -3%, 20%[15.4 µM], -9, /, 6%, -12, 4.9
- COc1ccc(N2CCN(c3cc(=O)n(Cc4ccc(F)cc4)c(=O)[nH]3)CC2)cc1
 : -15%, -23%, 16, -5.7%, ?, -25, 4.9
- CCOC(=O)C1CCCN(c2c(N3CCN(C4CCCCC4)CC3)c(=O)c2=O)C1 (centres undefined)
 : -1%, -26%, -22, -2.8%, 4%, 1, -16
- O=c1cc(CN2CCN(c3ccccc3)CC2)nc2scc(-c3ccccc3)n12
 : -2%, -2%[15.4 µM], 1, /, -31%, 3, 15
- COc1ccc(C(C)(C)C)cc1NC(=O)CCN1C(=O)C2CCCCC2C1=O (centres undefined)
 : 3%, -4%, 13, 0.2%, /, -20, /
- C/C(=N\NC(=O)CSCc1ccc(Cl)cc1)c1ccc(NC(=O)c2ccccc2)cc1
 : 9%, -11%, 0, -28%, 13%, 6, 0.6
- COc1cccc(C(=O)O)c1OS(=O)(=O)c1ccc(C)cc1
 : /, -1%, -12, 0.5%, /, /, /
- Cn1cccc1Cc1nnc(SCC(=O)NCC2CCCO2)n1-c1ccc(F)cc1 (centres undefined)
 : 7%, 23%, 7, 3.5%, -2%, 19, -1.3
- COc1ccc(/C=C/C(=O)NC(=S)NCC2CCCO2)cc1 (centres undefined)
 : -6%, 0%[15.4 µM], -8, /, 13%, ?, 3.1
- Cc1cc(C)cc(Nc2nc3ccccc3c(=O)[nH]2)c1
 : -25%, 2%, -7, /, 0%, 8, 1.8
- CCCS(=O)(=O)N1CCC(C(=O)NCc2ccccc2Cl)CC1
 : 0%, -11%, -17, -0.7%, -5%, -9, -1.0
- COC(=O)c1[nH]c2c(c1C)C(=O)CC(c1cccs1)C2 (centres undefined)
 : -8%, -37%[inhibitor], -7, -5.2%, 5%, -10, -2.9
- COc1ccc(OC)c(NC(=O)c2ccc(CSc3nnc(C)s3)cc2)c1
 : ?, -2%[15.4 µM], 23, /, -11%, 14, 0.0
- Cc1ccc(NC(=O)CSc2n[nH]c(C)c2[N+](=O)[O-])cc1C
 : -11%, 4%[15.4 µM], 4, 1.7%, 4%, -33, 4.0
- COCc1nc2oc3ccc(F)cc3c(=O)c2cc1C(=O)OC
 : 11%, 23%[15.4 µM], -18, -6.6%, 1%, -7, 1.9
- O=C(COC(=O)c1ccc(F)c(S(=O)(=O)N2CCOCC2)c1)Nc1ccc2[nH]c(=O)[nH]c2c1
 : -2%, -14%, -12, 0.2%, /, -8, /
- COc1ccc(/C=N/Nc2cc(=O)n(C)c(=O)n2C)cc1OC
 : ?, 2%, 10, 5.4%, 89µM*, -5, -11
- Cc1cc(=O)oc2cc(OC(C)C(=O)NC3(C#N)CCCCC3)ccc12 (centres undefined)
 : 1%, 1%, 0, 3.8%, /, 9, /
- Cc1nc(NC(=O)C2CC2)sc1C(=O)Nc1ccc(Br)cc1
 : -6%, 15%, 7, -13%, 11%, -7, 6.0
- COc1ccc(C2C(C(=O)c3ccco3)=C(O)C(=O)N2c2nnc(C)s2)cc1 (centres undefined)
 : -10%, 42%[15.4 µM], 4, /, 10µM*, 16, ?
- C=C(C)CSc1nnc(-c2cccc(Cl)c2)n1N
 : 3%, -10%, -5, 1.2%, 3%, -4, 4.5
- CCOc1cnn(Cc2ccccc2)c(=O)c1SCc1ccccc1
 : -11%, 8%[15.4 µM], 21, -2.1%, 23%, 3, 7.5
- CC(=O)c1cccc(NC(=O)Nc2ccc3c(c2)CCC3)c1
 : -10%, 30%, 0, 0.8%, 16%, -1, /
- CCn1c2ccccc2c2nnc(SCC(=O)OCN3C(=O)c4ccccc4C3=O)nc21
 : -2%, -1%, 0, -1.9%, -2%, 12, 2.8
- COc1ccc(C(=O)Nn2cnc3ccccc3c2=O)c(OC)c1
 : -3%, 4%, 6, -7.6%, 20%, 1, 7.1
- CN(C)S(=O)(=O)Nc1ccccn1
 : 10%, -13%, 1, -0.4%, 10%, -4, -1.9

Profiles from above. Order of values: gsp antag | gsp agonist | TRPML1 blocker | ClpP mod | Sfp inh | TRPV1 potentiator | Menin MLL FP FL
Shown for `COC(=O)c1[nH]c2c(c1C)C(=O)CC(c1cccs1)C2` (centres undefined) : -8% | -37%[inhibitor] | -7 | -5.2% | 5% | -10 | -2.9
Shown for `CN(C)S(=O)(=O)Nc1ccccn1` : 10% | -13% | 1 | -0.4% | 10% | -4 | -1.9
Shown for `COc1ccc(OC)c(NC(=O)c2ccc(CSc3nnc(C)s3)cc2)c1` : ? | -2%[15.4 µM] | 23 | / | -11% | 14 | 0.0

Following part.
Under each structure – gsp antag, gsp agonist, TRPML1 blocker, ClpP mod, Sfp inh, TRPV1 potentiator, Menin MLL FP FL
- COc1ccc(N(C(=O)Cn2nnc3ccccc32)C(C(=O)NCc2ccco2)c2cccnc2)cc1 (centres undefined)
 : -2%[15.4 µM], ?, -6, 2.8%, 2%, 13, -1.4
- COc1ccc(N(C(=O)CCl)C(C(=O)NCCc2ccccc2)c2cccs2)cc1 (centres undefined)
 : -8%, -9%, -9, -0.9%, 13%, -7, 3.4
- O=C1CSC(c2ccc([N+](=O)[O-])cc2)N1c1ccccc1 (centres undefined)
 : 0%, -6%, 1, /, 10%, 9, -2.8
- CC(=O)Nc1ccc(S(=O)(=O)NNC(=S)NCC2CCCO2)cc1 (centres undefined)
 : -2%, ?, -6, -0.4%, 56µM*, -3, -0.2
- CN(C)c1ccc(C2OC(=O)C(C)(C)C(=O)C2(C)C)cc1 (centres undefined)
 : 6%, ?, -2, 0.4%, 17%, -2, 3.2
- CSCCC(NC(=O)C12CC3CC(CC(C3)C1)C2)C(=O)OCC(=O)c1ccc(Cl)cc1 (centres undefined)
 : 10%, 18%, 47, 2.4%, 5%, 23, 0.0
- N#Cc1c(C(F)(F)F)cc(-c2ccccc2)nc1SCCN1CCOCC1
 : -10%, -3%, 10, 0.7%, -8%, -28, 7.3
- O=C(NCCCN1CCN(c2ccccc2F)CC1)C1CCN(S(=O)(=O)c2cccs2)CC1
 : -1%, 11%, 14, 0.1%, 10%, -22, 2.4
- O=C1CCCCN1CCC(=O)N1CCCC(Nc2ccc(F)c(F)c2)C1 (centres undefined)
 : -4%, 8%, 2, -0.6%, 13%, -1, /
- CC(C)OC(=O)CC1C(=O)NCCN1C(=S)NC(=O)c1ccccc1 (centres undefined)
 : 4%, -14%, 29, 0.0%, 18µM*, -4, 0.6
- O=C(NCC1CCCO1)C(=O)N/N=C/c1ccc(OCc2ccccc2Cl)cc1 (centres undefined)
 : -4%, 2%, -9, -2.6%, /, /, /
- C=CC[n+]1c(-c2ccc(C)cc2)csc1NNC(=O)Nc1ccccc1
 : -20%, -7%, 9, -2.3%, -15%, 7, 5.8
